Compound activity deposited in PubChem BioAssay by SRMLSC.
H5N1 CPE – MDCK cell protection from H5N1 avian flu; cytopathic effect, luminescence, 72 h; active compounds read high; no value below 0 was filed and about half of the inactive calls have no number; reference of the scale not given here; AID 740, 2007; actives 0.07% (n = 96,000); inhibition, % at 50 µM; in the data active means inhibition above about 25%
* = called active by the depositor; i = inactive. Some of the compounds tested; rates above refer to the full screens.

SMILES	H5N1 CPE
O=C1CCCC2=C1C(c1cccs1)n1nc(SCc3ccccc3)nc1N2 (stereo not drawn)	i
COc1ccccc1C(=O)NCCc1nc2ccccc2[nH]1	i
Cc1cc(C)cc(SCc2noc(C(=O)NCC3CCCO3)c2C(=O)O)c1 (stereo not drawn)	0.5
Cc1cc(NC(=O)COC(=O)c2c(C)nn(Cc3ccccc3Cl)c2Cl)no1	i
COc1ccc(C2C(C(=O)c3cccs3)=C(O)C(=O)N2c2nnc(C)s2)cc1OC (stereo not drawn)	0.4
CC(C)c1ccccc1N=C1SCCN1C1CCS(=O)(=O)C1 (stereo not drawn)	i
Cc1c(C(=O)Nc2cnccn2)oc2ccccc12	0.6
COc1ccc(CCNC(=O)CSc2nnc(-c3cccc(F)c3)o2)cc1OC	0.2
COc1ccc(CNC(=O)C2CCNCC2)cc1	0.6
c1ccc(Cn2nnc3c(N4CCc5ccccc5C4)ncnc32)cc1	i
Cc1nnc(SCC(=O)NCCN2C(=O)CSC2=O)s1	i
CCOC(=O)c1c(C)[nH]c(C)c1-c1ccccc1OC	0.8
COc1ccc(/C=N/NC(=O)CCc2c(C)n[nH]c2C)cc1O	1.1
Cn1cccc1Cc1nnc(SCC(=O)N2CCN(c3ccccc3)CC2)n1-c1ccc(F)cc1	2.7
COc1ccccc1C(CC(=O)Nc1nccs1)c1ccco1 (stereo not drawn)	i
CC(C)CC(NC(=O)C1CCC(C)CC1)C(=O)Nc1cccnc1 (stereo not drawn)	i
O=C(NC1CCCCC1)N1CCCC(c2nc3ccccc3[nH]2)C1 (stereo not drawn)	0.6
CC(=O)Nc1nc2c(c3c1c(=O)oc1ccccc13)CCCCC2	0.2
O=C1c2cccnc2C(=O)N1Cc1ccc(Cl)cc1	i
COc1ccccc1C(=O)n1nc(-c2ccco2)nc1N	2.4
Cc1ccc(Cn2ncc3c(N4CCCC4)ncnc32)cc1	0.3
CCSc1nc2ccccc2n1CC(N)=O	i
Cc1occc1C(=O)NCc1ccccc1	i
Cc1ccc(-c2nnc(SCC(=O)Nc3ccc4c(c3)OCCO4)n2N)cc1	0.3
Cc1nnc2ccc(N3CCN(C)CC3)nn12	0.8
CC(=O)c1cccc(NC(=O)N2CCCC2C(=O)NCc2ccc(C)cc2)c1 (stereo not drawn)	0.1
Cc1ccc(S(=O)(=O)N/N=C\c2cc3c(cc2[N+](=O)[O-])OCO3)cc1	0.2
CC(=O)NC1=NC(=O)/C(=C/N2CCOCC2)S1	i
O=C(Cc1cccs1)N1CCC2(CC1)OCCO2	0.0
Cc1ccc(S(=O)(=O)c2cc(N3CCOCC3)nc(-c3ccccc3)n2)cc1	i
S=C(NCCN1CCOCC1)N/N=C/c1c2ccccc2cc2ccccc12	0.6
Oc1ccccc1-c1nnc(COc2ccc(Cl)cc2Cl)o1	i
N#CCc1c(C#N)c(N)nc(N2CCN(c3ccc(F)cc3)CC2)c1C#N	2.4
O=C(Nc1cccnc1)c1cnc2ccccc2n1	i
CCOC(=O)c1c(C)[nH]c(C(=O)CSc2nnc(C3CC3)n2N)c1C	i
CCN1CCN(S(=O)(=O)c2ccc(OC)c(Br)c2)CC1	0.2
CC1CCCCC1N=CC1=C(O)CC(C)(C)CC1=O (stereo not drawn)	i
Cc1ccc(C(=O)CC(=O)c2cccc(F)c2)c(O)c1	i
COc1ccccc1Nc1nnc(SCC(=O)N2CCCC2=O)s1	i
O=C(CNS(=O)(=O)c1ccccc1)Nc1ccc(C(F)(F)F)cc1	0.2
CCN(CC)S(=O)(=O)c1ccc(C(=O)OCCNC(=O)c2cccnc2)cc1	0.7
Cn1nc([N+](=O)[O-])nc1Oc1ccc2ccccc2c1	0.3
CC1(C)Cc2cccc(OCC(=O)Nc3cccnc3Cl)c2O1	i
Cn1c(=O)n(-c2cccc(Cl)c2)c(=O)c2c3c(sc21)COC(C)(C)C3	1.0
Cc1csc(SCC(=O)NC2CCCCC2)n1	0.8
CCCCn1c(SCC(=O)NC(=O)NCc2ccco2)nc2cc(S(N)(=O)=O)ccc21	2.2
Cc1cccc2cc(=O)[nH]c(C)c12	0.1
CCOCCCNC(=S)NCCNc1nc2c(C)cccc2cc1C#N	0.2

Nothing new here: entries from further up.
SMILES	H5N1 CPE
Cn1c(=O)n(-c2cccc(Cl)c2)c(=O)c2c3c(sc21)COC(C)(C)C3	1.0
Cc1csc(SCC(=O)NC2CCCCC2)n1	0.8
CCCCn1c(SCC(=O)NC(=O)NCc2ccco2)nc2cc(S(N)(=O)=O)ccc21	2.2
Cc1cccc2cc(=O)[nH]c(C)c12	0.1
CCOCCCNC(=S)NCCNc1nc2c(C)cccc2cc1C#N	0.2

(list continues)
SMILES	H5N1 CPE
CC(=O)c1ccccc1NS(=O)(=O)c1c(C)nn(-c2ccccc2)c1C	3.5
CC(C)OC(=O)CCC1(C(=O)O)CCC(=O)NC1 (stereo not drawn)	i
CCc1ccc(/C=C2/SC(=S)N(CC(=O)Nc3nc4ccccc4s3)C2=O)cc1	i
O=C(CNCC1CCCO1)Nc1ccc(N2CCCCCC2)cc1 (stereo not drawn)	i
CC(C)NC(=O)c1ccc(-c2cccc(C(F)(F)F)c2)o1	i
Cc1cccc(N(C)S(=O)(=O)c2ccc3c(c2)CCC(=O)N3)c1	i
COc1ccc(-n2ncc3c(N4CCC(C(N)=O)CC4)ncnc32)cc1	i
O=[N+]([O-])c1ccc(N2CCN(S(=O)(=O)c3ccc(Cl)cc3)CC2)cc1NCc1cccnc1	1.7
O=C(CCS(=O)(=O)Cc1ccccc1F)NCCCN1CCCCC1	0.3
C/C(=N\Oc1cccc(F)n1)c1ccc(Cl)cc1Cl	i
CCCc1nccn1S(=O)(=O)c1cc(OC)ccc1OC	i
COc1ccc(Cc2nnc(NC(=O)c3c(-c4ccccc4)noc3C)s2)cc1	0.0
CCCCC(c1nnnn1Cc1ccco1)N1CCN(C(=O)c2ccco2)CC1 (stereo not drawn)	0.9
Cc1ccnc(SCCn2c(N3CC(C)CC(C)C3)nc3c2c(=O)n(C)c(=O)n3C)n1 (stereo not drawn)	2.5
CCC(CC)c1nc(NCCC(=O)O)c2ccccc2n1	0.2
CCOc1ccc(OCC(=O)N2CCOCC2)cc1	0.8
COc1ccccc1N1CCN(c2cc(=O)n(-c3ccccc3Cl)c(=O)[nH]2)CC1	0.4
COc1ccc(CCN2C(=NC(=O)CCC(=O)O)SC3CS(=O)(=O)CC32)cc1OC (stereo not drawn)	i
Cc1ccc(NCc2nnc(SCC(=O)c3ccccc3)o2)c(C)c1	1.6
CCOC(=O)c1[nH]c(COC(=O)CCOc2ccccc2OC)c(C(=O)OCC)c1C	i
CCC(=O)N1CCc2cc(S(=O)(=O)CCC(=O)O)ccc21	i
CC(C)(C)C(=O)CSc1nccc(=O)[nH]1	1.4
CN(C)C1=NP(N(C)C)(N(C)C)=NC(c2ccccc2)=N1	i
CC1CCCCN1CCNC(=O)C1CCN(S(=O)(=O)N2CCCCC2)CC1 (stereo not drawn)	i
CC1=CC(C)(C)N(S(=O)(=O)c2ccc(C)cc2)c2cc(C)ccc21	0.5
O=C1CSC(c2ccccn2)N1Cc1cn2ccccc2n1 (stereo not drawn)	2.9
O=C(NCCc1ccccc1)C1CCN(S(=O)(=O)N2CCC3(CC2)OCCO3)CC1	i
O=C(Cn1c(=O)oc2cc(S(=O)(=O)N3CCCCCC3)ccc21)NC1CCCCCCC1	i
Cc1ccc(SC(C)c2nc(-c3ccncc3)no2)cc1 (stereo not drawn)	i
CC1CCCCN1S(=O)(=O)c1ccc2c(c1)CCN2C(=O)C1CCC1 (stereo not drawn)	1.7
COC(=O)C1C(O)=C(C=NC2CCCCC2)C(=O)CC1(C)C (stereo not drawn)	0.1
COCc1cc(=O)[nH]c(Nc2nc3ccc(C)cc3o2)n1	2.1
Nn1c(SC/C=C/c2ccccc2)nnc1-c1ccncc1	0.5
COc1nc(Nc2ccc3c(c2)OCO3)nc(OC)n1	0.2
CC(C)C(=O)Nc1ccc(-c2nc3cccnc3o2)cc1	1.2
CCCCNC(=S)NNC(=O)C12CC3CC(CC(C3)C1)C2	3.7
Cc1ccc(C2CC(C(F)(F)F)n3nc(C(=O)NCc4ccco4)cc3N2)cc1 (stereo not drawn)	i
Cc1c(C(=O)O)oc2c1C(O)CCC2 (stereo not drawn)	i
O=C(Nc1cccnc1)c1ccc2c(c1)C(=O)N(Cc1cccnc1)C2=O	0.2
COCC(=O)Nc1ccccc1C#N	i
COC(=O)c1oc2ccc(Br)cc2c1NC(=O)CCN1CCOCC1	0.6
CC(=O)Nc1sc(C)c(C)c1CN1CCN(S(=O)(=O)c2ccccc2)CC1	0.6
Cc1csc(NC(=O)CCN2C(=O)c3ccccc3S2(=O)=O)n1	0.5
COc1ccc(-c2nnc(-c3cccnc3)o2)cc1OC	0.8
Fc1ccc2[nH]c3c(N4CCN(C5CCCCC5)CC4)ncnc3c2c1	i
Cc1ccccc1-c1nc(CN2CCC(C(=O)NCC3CCCO3)CC2)c(C)o1 (stereo not drawn)	i
CCOc1ccc(-n2c(O)c(C=NCCN3CCNCC3)c(=O)[nH]c2=O)cc1	0.4
CCOc1ccc(CCNC(=O)C2CCCN(c3nnc(-n4cccc4)s3)C2)cc1OCC (stereo not drawn)	i

By substructure: the entries above with a CF3 group
SMILES	H5N1 CPE
O=C(CNS(=O)(=O)c1ccccc1)Nc1ccc(C(F)(F)F)cc1	0.2
CC(C)NC(=O)c1ccc(-c2cccc(C(F)(F)F)c2)o1	i
Cc1ccc(C2CC(C(F)(F)F)n3nc(C(=O)NCc4ccco4)cc3N2)cc1 (stereo not drawn)	i

More records.
SMILES	H5N1 CPE
Cn1c(=O)oc2cc(S(=O)(=O)NC3CCCc4ccccc43)ccc21 (stereo not drawn)	1.3
Cc1cc(C)nc(SCc2nnc(SCC(=O)N3CCCc4ccccc43)o2)n1	i
O=S1(=O)N=C(SCCO)c2ccccc21	i
CCC(C)(C)NC(=O)C(c1cccn1C)N(Cc1ccccc1)C(=O)Cn1nnc2ccccc21 (stereo not drawn)	1.3
Brc1ccc(OCCCN2CCOCC2)cc1	i
CCC(=O)N1CCCc2cc(S(=O)(=O)N3CCC(N4CCCCC4)CC3)ccc21	1.4
Cn1c(SCC(=O)NC(C)(C)C)nnc1-c1ccc(C(C)(C)C)cc1	2.7
CCN1CCN(c2nc(-c3cccnc3)nc3ccccc23)CC1	1.8
Cc1ccc(-n2nnc3c(=O)n(Cc4cccc(C)c4)cnc32)cc1	0.4
CC(=O)C(=[N+]=[N-])C(=O)NCc1ccccc1	0.1
Cc1ccc(OCC(=O)Nc2ccc(Cl)cc2)c(-n2nc3ccccc3n2)c1	2.1
OCCNc1ccc(Cl)cc1	i
COc1ccccc1C1C(C(C)=O)=C(O)C(=O)N1CCc1ccccc1 (stereo not drawn)	i
CC1=C(C#N)C(Nc2ccc(Cl)cn2)(C(F)(F)F)C(=O)N1 (stereo not drawn)	1.3
Cc1cccc(N2C(=O)CC(Sc3nc(C)c4c(n3)CCCC4)C2=O)c1 (stereo not drawn)	0.8
CC(C)(C)C(=O)CSc1nnc(-c2cccs2)n1CC1CCCO1 (stereo not drawn)	i
COc1ccccc1OC(=O)CN1C(=O)c2ccccc2C1=O	i
Cc1cccc2c1OCC/C2=N\NC(=O)COc1ccccc1Cl	i
COCCNc1nc(SCc2ccccc2)nc2sc3c(c12)CCC3	1.1
COc1ccc(CCNC(=O)CCC2COc3ccccc3O2)cc1OC (stereo not drawn)	i
Cc1ccc(NC(=O)c2c(C(F)(F)F)nn(C)c2Cl)cc1C	i
Cc1ccc(-c2noc(=O)n2CC(=O)Nc2ccc(S(=O)(=O)NC3CC3)cc2)cc1	i
O=C(c1coc2ccc(O)cc12)C1CC1	i
O=C(CN(C1CCCCC1)S(=O)(=O)c1ccc(F)cc1)NCCCO	0.4
CCn1cc(/C=N/NS(=O)(=O)c2ccc(C)cc2)c(C)n1	1.3
CC1(C)CC(=O)C2=C(C1)N=C1SCCC(=O)N1C2c1ccc(C(F)(F)F)cc1 (stereo not drawn)	1.0
CCc1ccc(NC(=O)c2ccc3ncsc3c2)cc1	i
O=C(c1cc(-c2ccc(O)cc2)on1)N1CCCc2ccccc21	i
O=C(NCN1CCc2ccccc2C1)c1cnccn1	0.8
CCOc1ccc(C2NC(=O)NC(C)=C2C(=O)OC)cc1C (stereo not drawn)	i
O=C(CSC1=NCCS1)N1CCN(c2ccc(Cl)cc2)CC1	4.0
CCOC(=O)c1ccc(NC(=O)C2CCCO2)cc1 (stereo not drawn)	i
CC1=NNC(=O)/C1=C\c1cn(-c2ccccc2)nc1-c1ccc(Cl)cc1	i
Cn1c(=O)c2c(nc(CN3CCC(C(N)=O)CC3)n2Cc2c(F)cccc2Cl)n(C)c1=O	3.1
O=C(N/N=C/c1ccccc1Br)c1ccc(CSc2cccc3cccnc23)cc1	0.6
C[C@H](NC(=O)NCCc1ccccc1)C(=O)O	i
COc1ccc(-c2nc3n(n2)C(c2cccnc2)C(C(N)=O)=C(C)N3)cc1 (stereo not drawn)	0.1
Cc1cc(Br)cc(C)c1OCCCCN(C)C	i
CC(=O)Nc1ccc(S(=O)(=O)NC(CC(=O)NCCC2=CCCCC2)C(C)C)cc1 (stereo not drawn)	i
Nc1cc(-c2ccco2)no1	i
O=c1[nH]c2cc(Cl)ccc2n1-c1ccccc1	i
CCOC(=O)c1c(-c2ccccc2)n(C)c2ccc(O)cc12	1.7
CCC(=O)N(Cc1cc2c(C)ccc(C)c2[nH]c1=O)C1CCCCC1	i
CCC(=O)Nc1ccccc1C(=O)OCC(=O)c1ccccc1	i
